miR-21 FLuc = qHTS Assay for Modulators of miRNAs and/orActivators of miR-21. HeLa miR-21 FLuc reporter, luciferase, 48 h. Potency, µM (doses to about 38.3 µM), for inactives: top-dose reporter change, positive = more light. 340,000 tested, under 10 active; active = well fitted rising curve with a large enough effect; inconclusive = small, poorly fitted or top-dose-only effect; inactive = no such curve, though single readings can be large or run the other way;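 also: % of control where 0% means no effect; miR-21 action dims this reporter so a rising signal means less miR-21 action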
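HeLa cells endogenously expressing miR-21, stably carrying CMV-driven firefly luciferase with a downstream miR-21 binding site, 2000 cells/well. Titrations up to approximately 40 uM, 48 hours; luciferase luminescence read.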
Rango-impB inh = qHTS Assay for Inhibitors of Rango (Ran-regulated importin-beta cargo) - Importin beta complex formation. Rango CFP/YFP FRET sensor + importin beta, 45 min. AID 540263, 2011. 0.031% of 340,000 active. Potency, µM (doses to about 92.2 µM), without a hit: top-dose inhibition of complex formation. Importin subunit beta-1 (Homo sapiens), Q14974; active = rising FRET ratio curve, often small or poorly fitted; inconclusive = mostly compound fluorescence or quenching in the first reads; inactive = flat curves in all reads;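 also: potency is read from the fitted curve at half-maximal effect; 0% = DMSO wells and 100% = buffer wells lacking importin beta; nearly all actives have a fitted effect of over 15% in size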
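FRET biosensor Rango (snurportin 1 IBB between N-terminal EYFP and C-terminal Cerulean), 50 nM in PBS/1 mM DTT/0.02% Tween-20/0.1% BSA, preincubated 5 min RT with compound; 0.125 microM importin beta added, 45 min RT, CFP/YFP FRET ratio read.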
Rango dissoc inh = qHTS Assay for Inhibitors of RanGTP induced Rango (Ran-regulated importin-beta cargo) - Importin beta complex dissociation; AID 540253, 2011; Biochemical FRET Rango-importin beta, RanGTP-induced dissociation; 0.071% of 340,000 active; Potency, µM (doses to about 46.1 µM), for inactives: top-dose activity change, negative = inhibition; active means falling FRET ratio curve, often poorly fitted, with flat reads before Ran was added; inconclusive means other falling curves, or compound fluorescence or quenching; inactive means flat or rising ratio curve;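 also: potency is read from the fitted curve at half-maximal effect; % of control where 0% means no effect; nearly all actives have a fitted effect of over 45% in size; -100% = wells without RanGTP and RCC1; the record marks most hits as doubtful in a second field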
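Quantitative HTS using a FRET biosensor: 0.1 uM Rango, 0.25 uM importin beta, 0.6 uM Ran, 2 mM GTP, 0.2 uM RCC1 final, PBS with DTT, Tween-20 and BSA. Post-read taken 45 min after Ran addition.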
GLA inh pH 4.5 = qHTS Assay for Inhibitors of Human alpha-Galactosidase at pH 4.5; AID 1467, 2008; 230,000 tested, under 10 active; purified enzyme, 4-MU-alpha-Gal fluorescence, pH 4.5; activity change, negative = inhibition, % at 105 µM; Alpha-galactosidase A (Homo sapiens), P06280; inconclusive = small, poorly fitted or top-dose-only inhibition, or a rising curve; inactive = flat fitted curve, though single readings scatter; no compound was filed as active;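 also: 0% = full activity with enzyme and -100% = basal without enzyme; dose as in the result columns while the protocol names 77 µM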
Target sequence (P06280 whole entry, looked up): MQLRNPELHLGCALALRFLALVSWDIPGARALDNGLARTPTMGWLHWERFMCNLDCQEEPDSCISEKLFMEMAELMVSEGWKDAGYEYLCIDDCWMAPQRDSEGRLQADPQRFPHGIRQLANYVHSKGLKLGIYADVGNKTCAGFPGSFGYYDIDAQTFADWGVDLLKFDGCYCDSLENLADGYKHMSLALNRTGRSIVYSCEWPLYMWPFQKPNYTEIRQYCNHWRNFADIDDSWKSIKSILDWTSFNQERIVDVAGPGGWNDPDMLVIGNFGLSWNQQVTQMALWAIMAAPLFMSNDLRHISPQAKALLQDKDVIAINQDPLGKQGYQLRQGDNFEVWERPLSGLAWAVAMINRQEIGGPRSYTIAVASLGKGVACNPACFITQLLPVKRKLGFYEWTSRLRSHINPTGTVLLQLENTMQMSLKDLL
* hit, by the source's call; u = inconclusive; x = no result given; & = joins results of further samples. An excerpt. The share of hits here may be higher or lower than overall.

SMILES	miR-21 FLuc	Rango-impB inh	Rango dissoc inh	GLA inh pH 4.5
COc1ccccc1N1CCN(C(=O)Cn2cnc3c2c(=O)n(C)c(=O)n3C)CC1	9%	-1.0%	16%	-18
CN(C)CCC1(C2=CCCC2)CC/C(=C/c2ccc(Cl)cc2)C1=O (configuration not stated)	x	12%	13%	x
COc1cccc(CNC(=O)C(=O)NCC2OCCCN2S(=O)(=O)c2cc(C)ccc2C)c1 (configuration not stated)	9%	0.1%	10%	x
CCSc1nc(-c2ccccc2)c2cc(Cl)ccc2n1	0%	-0.3%	-11%	3
O=C(NN=C1C2CC3CC(C2)CC1C3)c1cccc(S(=O)(=O)N2CCOCC2)c1	-9%	u	12%	-1
CCN(CC)c1nc(-c2ccccn2)nc(-c2ccccc2)c1C#N	u	0.7%	-1%	-34
CCOC(=O)CCc1c(C)nc2c(c(C)nn2C(C)(C)C)c1C	7%	2.2%	1%	2
Cn1nnnc1Sc1ccc(C(=O)O)cc1[N+](=O)[O-]	6%	-0.7%	1%	-3
COc1cccc(-c2cc(C(F)(F)F)nc(-n3cc(C)cn3)n2)c1	10%	-1.4%	10%	-9
COC(=O)c1cc(C)cc(=O)o1	-3%	1.0%	8%	4
Cc1ccc2nc(NC(=O)C(NS(=O)(=O)c3cccc4nsnc34)C(C)C)sc2c1 (configuration not stated)	-1%	-3.9%	-5%	0
COc1ccc(C(=O)Nc2nnc(S(=O)(=O)N(C)Cc3ccccc3)s2)cc1	-1%	0.2%	-6%	x
COC(=O)CNC(=O)COC(=O)c1ccc(OC)c([N+](=O)[O-])c1	-1%	5.5%	11%	21
O=C(OCn1nnc2ccccc2c1=O)c1cccnc1	-7%	-0.3%	-19%	1
COc1ccc(S(=O)(=O)NCc2cccnc2)cc1C(=O)NC1CCCCC1	-3%	u	-3%	x
CCCCOc1ccc(C(=O)NCC(=O)NCC(c2ccc(OC)cc2)N2CCCC2)cc1 (configuration not stated)	x	2.7%	-30%	x
CCc1noc(C)c1C(=O)Oc1ccc(N(C)S(=O)(=O)c2ccccc2)cc1	x	3.0%	-24%	x
COc1cc(C)c(Br)cc1S(=O)(=O)NCCCN1CCOCC1	0%	-0.2%	-6%	4
O=C(c1ccc(Cl)c([N+](=O)[O-])c1)N1CCN(c2ccccc2)CC1	28%	2.0%	-10%	9
Cc1ccccc1NC(=S)NC1CCCC1	-3%	1.7%	-15%	x
Cc1ccc(NC(=O)CN2CCc3cc4c(cc3C2C)OCCCO4)cc1C (configuration not stated)	0%	-0.2%	-13%	x
NC(=O)c1ccccc1NC(=O)CCN1C(=O)c2ccccc2C1=O	-9%	0.7%	7%	-1
CCN(CC)C(=O)NC1CC(=O)N(c2ccc(OC)cc2)C1 (configuration not stated)	-2%	5.1%	13%	7
CC(=O)Nc1cccc(NC(=O)CSc2nnc3ccc(-c4ccncc4)nn23)c1	x	6.2%	-2%	x
Cn1cc2c(=O)n(/N=C/c3ccccc3)cnc2n1	-5%	-1.0%	-8%	3
The listing continues:
SMILES	miR-21 FLuc	Rango-impB inh	Rango dissoc inh	GLA inh pH 4.5
COC(=O)c1cccn(CC(=O)c2ccc(Cl)cc2)c1=O	-3%	-0.7%	11%	-4
O=C(CSc1ccccn1)Nc1ccc(F)c([N+](=O)[O-])c1	0%	-0.5%	21%	1
O=[N+]([O-])c1cccc(-c2nnc(SCc3cccnc3)o2)c1	-17%	4.2%	-11%	-5
O=C(NCc1ccco1)C1CCCN(S(=O)(=O)c2ccc(Cl)cc2)C1 (configuration not stated)	2%	-0.1%	-8%	0
Cc1cccc(C(=O)N2CCc3cc(-c4nc(NC(=O)CN5CCCC5)sc4C)ccc32)c1	17%	1.4%	-11%	x
NNc1nc(-c2ccccc2Cl)nc2sc3c(c12)CCCC3	-77%	6.2%	-11%	-6
CCOC(=O)C(C)c1nn(C)c(=O)c2ccccc12 (configuration not stated)	4%	0.1%	-12%	11
COC(=O)c1ccc(S(=O)(=O)N(CCO)Cc2ccccc2)n1C	1%	0.1%	9%	2
COc1cc2c(cc1OC)C(C)N(C(=O)Nc1cc(C)cc(C)c1)CC2 (configuration not stated)	20%	-3.4%	-9%	x
NS(=O)(=O)c1ccc(NC(=O)COc2cccc3ccccc23)cc1	1%	u	20%	x
Cc1cccc(N2CCN(C(=O)C(C)n3nc(C)n4c(cc5occc54)c3=O)CC2)c1C (configuration not stated)	1%&0%	-1.0%	1%	-2
O=C(CSc1n[nH]c(-c2cccs2)n1)N1CCCCC1	x	-4.9%	-15%	x
O=C(CCN1C(=O)c2ccccc2C1=O)NCc1ccc(Cl)cc1	1%	-0.4%	-6%	x
CN(Cc1ccccc1)C(=O)C1CCN(Cc2ccc(F)cc2)CC1	-3%	0.9%	-1%	6
COC(=O)c1sc(-c2cccs2)cc1NC(=O)/C=C/C(=O)O	3%	5.7%	16%	-6
Cn1ncc2nnn(-c3ccccc3)c(=O)c21	-2%	5.0%	-9%	-3
O=C(CSc1nc2nc(-c3cccs3)cc(C(F)(F)F)c2c(=O)[nH]1)C(F)(F)F	-19%	u	-24%	x
COc1cccc(-n2nc3c(=O)n(Cc4ccccc4Cl)nc(C)c3c2C)c1	0%	0.7%	5%	-25
CCCC1(C(=O)OCC)NC(c2ccc(N(C)C)cc2)C2C(=O)N(c3ccccc3)C(=O)C21 (configuration not stated)	-7%	-0.8%	-15%	0
COc1ccc(-n2nc3c(c2NC(=O)C2CCCC2)CS(=O)C3)cc1 (configuration not stated)	-4%	1.3%	3%	3
O=C(Nc1cccnc1)c1ccc2nc(-c3ccccc3)c(-c3ccccc3)nc2c1	16%	0.6%	-3%	-10
Cc1ccc(-n2c(SCC(=O)O)nc3sc4c(c3c2=O)CCCC4)cc1	-16%&-7%	-0.7%	2%	5
CC(NC(=O)c1cc(-c2ccc(Br)cc2)on1)c1ccccc1 (configuration not stated)	-5%	-1.4%	-13%	2
CCN(CC)CCOC(=O)C(Cc1ccco1)Cc1cccc2ccccc12 (configuration not stated)	x	3.0%	13%	x
CCCCc1nc2c(=O)[nH]c3ccccc3c2o1	-11%	-0.4%	-9%	17
(listing goes on)
SMILES	miR-21 FLuc	Rango-impB inh	Rango dissoc inh	GLA inh pH 4.5
CCC(=O)Nc1ccccc1-c1nc2ccccc2[nH]c1=O	-9%	-2.1%	-22%	x
O=C(c1cc(COc2ccc3ncccc3c2)on1)N1CCCC(O)C1 (configuration not stated)	3%	3.0%	7%	2
Cc1cc(Br)ccc1SCC(=O)Nc1cccnc1	1%	u	0%	9
Cc1nc2ccc(N=NC3=C(O)CCCC3=O)cc2s1	-45%	0.3%	-7%	6
Cc1csc(NC(=O)c2nn(C)c(C)c2[N+](=O)[O-])n1	-37%	-5.1%	18%	4
CC1CCCN(C(=O)CSc2nnc(-c3cccnc3)n2C2CCCCC2)C1 (configuration not stated)	-1%	-0.1%	-3%	4
C=CCn1cccc(C(=O)Nc2ccc(OC)cc2)c1=O	-38%	-4.2%	2%	13
Cc1ccc(NC(=O)Cn2cncc2-c2ccc([N+](=O)[O-])cc2)cc1C	-3%	-3.6%	0%	3
O=C(COC(=O)c1cccnc1Cl)NCc1ccc2c(c1)OCO2	1%	6.7%	-1%	-7
CCCN(CCC)Cc1c(C(=O)N/N=C/c2cccs2)nnn1-c1nonc1N	-2%	u	-15%	x
CN(CC(=O)Nc1cccc(F)c1)C(=O)CCc1nc2sc3c(c2c(=O)[nH]1)CCCC3	x	u	-20%	x
CCCc1nc(-c2ccc(-c3ccc(F)cc3)cc2)no1	-30%	-3.0%	0%	-3
CCCCCCCCCCCCN1C/C(=C\C(=O)OCC)c2ccccc2S1(=O)=O	2%	-1.0%	-8%	x
Cc1cc(C)nc(N2CCCC(C(=O)Nc3ccc4nc(C)c(C)nc4c3)C2)n1 (configuration not stated)	0%	2.8%	17%	-4
CCN1CCCC1Cn1cnc2c([nH]c3ccc(OC)cc32)c1=O (configuration not stated)	-1%	-1.0%	17%	2
Cn1c(SCc2cc(=O)n3cc(Br)ccc3n2)nnc1C1COc2ccccc2O1 (configuration not stated)	-4%	-0.2%	-5%	5
Cn1c(SCC(=O)Nc2ccc3c(c2)oc2ccccc23)nnc1-c1ccccc1	-7%	1.2%	1%	-1
CC1CCN(CCCNC(=O)CCc2nnc3n(CCc4ccccc4)c(=O)c4ccccc4n23)CC1	-8%	-1.1%	10%	x
NC(=O)c1c(N)sc2c1CCC2	-2%	u	-14%	2
O=C(Nc1cccs1)N1CCN(c2ncccn2)CC1	0%	-0.7%	-13%	x
CC1CCC(N2CCN(C(=O)c3ccccc3F)CC2)CC1 (configuration not stated)	-1%	-3.0%	4%	x
O=C(CNC(=O)c1ccc(Br)o1)Nc1ccc(F)c(S(=O)(=O)N2CCOCC2)c1	x	0.8%	-15%	x
O=C(Nc1ccccn1)c1cccc(S(=O)(=O)N2CCCCC2)c1	-21%	1.3%	5%	-5
CC1CN(C(=S)c2cccc([N+](=O)[O-])c2)CC(C)O1 (configuration not stated)	4%	2.3%	26%	-3
COc1ccc(C(C(=O)NCC2CCCO2)N(C(=O)CNC(=O)c2cccs2)c2ccccc2C)cc1OC (configuration not stated)	6%	-0.1%	-1%	-11

In the list so far, these contain two or more sulfur atoms.
SMILES	miR-21 FLuc	Rango-impB inh	Rango dissoc inh	GLA inh pH 4.5
Cc1ccc2nc(NC(=O)C(NS(=O)(=O)c3cccc4nsnc34)C(C)C)sc2c1 (configuration not stated)	-1%	-3.9%	-5%	0
COc1ccc(C(=O)Nc2nnc(S(=O)(=O)N(C)Cc3ccccc3)s2)cc1	-1%	0.2%	-6%	x
O=C(CSc1n[nH]c(-c2cccs2)n1)N1CCCCC1	x	-4.9%	-15%	x
COC(=O)c1sc(-c2cccs2)cc1NC(=O)/C=C/C(=O)O	3%	5.7%	16%	-6
O=C(CSc1nc2nc(-c3cccs3)cc(C(F)(F)F)c2c(=O)[nH]1)C(F)(F)F	-19%	u	-24%	x
Cc1ccc(-n2c(SCC(=O)O)nc3sc4c(c3c2=O)CCCC4)cc1	-16%&-7%	-0.7%	2%	5

Additional entries:
SMILES	miR-21 FLuc	Rango-impB inh	Rango dissoc inh	GLA inh pH 4.5
Cc1cc2ncc(S(=O)(=O)c3ccccc3)c(N)n2n1	4%	3.5%	-19%	u
CCOC(=O)C1=C(C)NC(=O)NC1c1cccs1 (configuration not stated)	7%	-6.1%	13%	2
CC[C@]12c3[nH]c4cc(-c5ccco5)ccc4c3CCN1C(=O)[C@@H](CC(=O)NCCCOC)C[C@@H]2C(=O)N1CCN(C(=O)c2ccco2)CC1	x	u	u	x
COc1ccc(OC)c2sc(N3CCN(c4ccccc4)CC3)nc12	x	3.2%	-1%	x
COC(=O)CSC1=C(C#N)C(c2cccc(OC)c2)CC(=O)N1 (configuration not stated)	6%	-1.7%	12%	1
O=C(Nc1ccccc1)N(CCCN1CCOCC1)Cc1ccccc1F	-5%	-0.6%	3%	-1
COc1cccc(CCNC(=O)c2cccc(NC(=O)C3=C(C)OCCS3)c2)c1	4%	u	u	x
COc1ccc(/C=C/C(=O)Oc2ccc(/C=N/NC(=O)COc3c(C)cccc3C)cc2)cc1	-6%	x	x	1
Nc1c(C(=O)Nc2nc3ccccc3s2)sc2nc(-c3cccs3)ccc12	u	u	u	-16
COc1cccc(C(=O)NCCS(=O)(=O)N2CCC3(CC2)OCCO3)c1	x	-0.8%	10%	x
Cc1cc(C)c2[nH]c(=O)c(C(c3nnnn3Cc3ccc4c(c3)OCO4)N3CCCCC3)cc2c1 (configuration not stated)	0%	2.0%	-11%	-12
O=[N+]([O-])c1ccc(Nc2ccccc2)nc1	-29%	u	-30%	7
Cc1ccccc1/C=C1\SC(=S)N(/N=C/c2cc([N+](=O)[O-])ccc2O)C1=O	-11%	-0.6%	-1%	-6

Compound activity deposited in PubChem BioAssay by National Center for Advancing Translational Sciences (NCATS).
